TRPML1 ag – qHTS for Agonists of the Human Mucolipin Transient Receptor Potential 1 (TRPML1) | Mucolipin-1 (Homo sapiens), Q9GZU1 | TRPML1-expressing cells, Ca2+ dye fluorescence, FDSS; host cell line not named in the record; reference of the full effect not given here | activation, % (test concentration not listed) | actives 0.12% (n = 410,000); in the data active = activation above about 50%; inconclusive = about 30% to 50%; inactive = below about 30%; also: 0% is about no effect; the text of the record puts the active cut at 80%
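Agonist activity was taken from a 110 s kinetic Ca2+ dye read on the FDSS after pinning compounds onto TRPML1-DL cells. The cells were seeded at 1,500/well with Tet inducer, incubated about 16 h, then dye-loaded at room temperature.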
Sfp inh – qHTS Assay for Inhibitors of Bacillus subtilis Sfp phosphopantetheinyl transferase (PPTase); AID 1490, 2009; 4'-phosphopantetheinyl transferase ffp (Bacillus subtilis), Q9F4F7; actives 3.5% (n = 310,000); Biochemical Sfp PPTase activity, qHTS; Potency, µM, without a hit: max response, negative = inhibition, most hits filed as inhibitors; active = well fitted inhibition curve with a large enough effect; inconclusive = small, poorly fitted or top-dose-only effect, or another doubt; inactive = no such curve, though single readings can be large or run the other way;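 also: the enzyme is Sfp with the accession as filed and its product quenches rhodamine fluorescence; potency is read from the fitted curve at half-maximal effect; 0% = enzyme reaction without inhibitor and -100% = no enzyme wells; top concentration of the series not given in the record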
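Buffer: 50 mM Hepes-Na pH 7.6, 10 mM MgCl2, 0.01% Nonidet P-40, 0.01% BSA. Enzyme 15 nM, pre-exposed to compound 15 min; substrates then added and fluorescence change tracked over 30 min.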
ClpP mod – qHTS Assay for Activators of ClpP | ATP-dependent Clp protease proteolytic subunit (Bacillus subtilis (strain 168)), P80244 | purified B. subtilis ClpP, FRET peptide cleavage, 20 min | Potency, µM (highest dose often 57.5 µM), for the others: at the top dose activity change, negative = active | actives 1.9% (n = 340,000) | AID 651965, 2013; active = well fitted falling curve with a large enough effect; inconclusive = small, poorly fitted or top-dose-only effect; inactive = no such curve, though single readings can be large or run the other way; also: potency is read from the fitted curve at half-maximal effect; the source files actives as falling curves though it sought activators and does not explain the sign; nearly all actives have a fitted effect of over 65% in size; many hits overshoot -100%
Target sequence (P80244 whole entry, looked up): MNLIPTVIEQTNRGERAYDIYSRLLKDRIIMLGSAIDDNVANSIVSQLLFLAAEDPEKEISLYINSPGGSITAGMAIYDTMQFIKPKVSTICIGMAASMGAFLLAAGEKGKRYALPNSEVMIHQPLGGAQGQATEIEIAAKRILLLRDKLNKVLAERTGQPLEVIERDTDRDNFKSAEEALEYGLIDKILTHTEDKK
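FRET quenching reversal measured ClpP activation: 10 microg/mL B. subtilis ClpP at pH 8 with the FRET-FV decapeptide, read at 430 nm after 320 nm excitation. The 20-min minus 0-min signal was scaled between DMSO/no-enzyme wells and ADEP (5.8 microM final).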
PINK1 expr mod – A Quantitative High throughput Screen to Identify Chemical Modulators of PINK1 Expression; actives 0.2% (n = 410,000); AID 624263, 2012; Potency, µM (series often up to 76.6 µM), for inactives: at the highest dose activation (PINK1 increase), usual class: activators; PINK1 immunofluorescence, high-content cytometry, 24 h; active = well fitted activation curve with a large enough effect; inconclusive = small, poorly fitted or top-dose-only effect; inactive = flat fitted curve, though single readings scatter; cell line not stated here;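 also: potency is read from the fitted curve at half-maximal effect; % of control where 0% means no effect; nearly all actives have a fitted effect of over 65% in size; a mitochondrial uncoupler was the plate control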
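PINK1 protein, normally rapidly degraded, was detected by immunofluorescence after 24 hour compound treatment of a stable cell line. Titration data (5 concentrations) came from laser-scanning cytometry, with CCCP-treated wells as controls.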
TRPV1 potentiator – HTS Assay for Compounds that Act as Potentiators of the Vanilloid Receptor 1. Transient receptor potential cation channel subfamily V member 1 (Homo sapiens), Q8NER1. TRPV1-expressing cells, Fluo-8 calcium influx, capsaicin EC20 potentiation; host cell line not named in the record; control for the full effect not named in the record. potentiation, % at 8.33 µM. actives 0.02% (n = 320,000). AID 540277, 2011; active means potentiation above 80%; inconclusive means 30% to 80%; inactive means below 30%; also: 0% is about no effect
Target sequence (Q8NER1 whole entry, looked up): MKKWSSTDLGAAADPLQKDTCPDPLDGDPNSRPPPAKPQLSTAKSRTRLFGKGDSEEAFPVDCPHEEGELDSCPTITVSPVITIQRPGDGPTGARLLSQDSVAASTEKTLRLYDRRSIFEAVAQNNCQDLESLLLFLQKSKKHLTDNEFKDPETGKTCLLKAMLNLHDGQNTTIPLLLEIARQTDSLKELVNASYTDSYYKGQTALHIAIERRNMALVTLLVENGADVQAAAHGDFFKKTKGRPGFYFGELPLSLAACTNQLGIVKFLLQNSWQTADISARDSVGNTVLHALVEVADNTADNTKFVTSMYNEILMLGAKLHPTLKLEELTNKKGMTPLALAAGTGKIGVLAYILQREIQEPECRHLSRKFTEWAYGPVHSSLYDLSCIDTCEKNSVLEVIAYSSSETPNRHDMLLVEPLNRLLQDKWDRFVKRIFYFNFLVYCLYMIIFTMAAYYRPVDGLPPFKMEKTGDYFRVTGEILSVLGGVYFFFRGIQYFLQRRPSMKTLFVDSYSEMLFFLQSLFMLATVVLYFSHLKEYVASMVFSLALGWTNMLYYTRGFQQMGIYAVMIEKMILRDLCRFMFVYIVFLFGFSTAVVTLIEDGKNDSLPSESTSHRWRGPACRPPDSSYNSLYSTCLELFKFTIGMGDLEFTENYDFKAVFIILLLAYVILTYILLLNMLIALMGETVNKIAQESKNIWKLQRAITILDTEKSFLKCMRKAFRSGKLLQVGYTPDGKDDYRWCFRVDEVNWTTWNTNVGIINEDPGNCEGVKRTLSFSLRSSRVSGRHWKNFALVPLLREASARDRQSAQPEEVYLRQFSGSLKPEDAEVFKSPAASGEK
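Cells expressing TRPV1 were dye-loaded with Fluo-8 and read kinetically: 10 s baseline, 3 min after compound (agonist portion), then 2 min after EC20 capsaicin (allosteric enhancer portion). Calcium-bound dye fluorescence at 480/520 nm.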
TRPML1 blocker – qHTS for Inhibitors of the Human Mucolipin Transient Receptor Potential 1 (TRPML1) | actives 0.02% (n = 390,000) | activity change, negative = inhibition, % (no concentration beside the values) | AID 624415, 2012 | TRPML1-inducible cells, Ca2+ dye fluorescence, FDSS; stronger effect = lower value; inhibition of EC80 agonist-evoked calcium signal | Mucolipin-1 (Homo sapiens), Q9GZU1; in the data active means activity change below about -50%; inconclusive means about -30% to -50%; inactive means above about -30%;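 also: stimulus is agonist 54-4 at its EC80 concentration; % is scaled to controls: 0 for no effect and ±100 for the full control effect; compound concentration not given in the record; the text of the record puts the active cut at -80%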
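TRPML1-DL cells, Tet-induced overnight (~16 h, 37 °C) at 1,500 cells/well, were loaded with Ca8 no-wash dye plus quencher for 45-90 min at room temperature. Compounds were pinned during FDSS kinetic reading; agonist 54-4 at EC80 (4 uM final) then added.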
Menin MLL FP FL – qHTS Assay for Inhibitors Targeting the Menin-MLL Interaction in MLL Related Leukemias: Competition With Fluorescein Labeled MLL-derived Peptide; 290,000 tested, under 10 active; Fluorescence polarization, fluorescein-MLL peptide displacement from menin; FP activity change, % at 61.4 µM; inconclusive = falling polarisation curve, or a change in total fluorescence; inactive = total fluorescence flat and polarisation flat or rising; no compound was filed as active; the % refers to the polarisation; negative = inhibition;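 also: % of control where 0% means no effect; inhibitors lower the polarisation; unlabelled MLL peptide was the positive control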
Active calls of the source: *; ? = inconclusive; . = no result given; & = joins results of further samples; [ ] = remark or other dose. Hits appear at their usual frequency; overall some 4.4% were active at least once.

Compound | TRPML1 ag | Sfp inh | ClpP mod | PINK1 expr mod | TRPV1 potentiator | TRPML1 blocker | Menin MLL FP FL
O=C(O)c1ccccc1NS(=O)(=O)c1cccc(NS(=O)(=O)c2cc(Br)ccc2Br)c1 | -0.8 | . | 0.6% | -1.5% | . | 0 | .
CC1=C([N+](=O)[O-])C(c2ccccc2Cl)NC(=O)N1 (configuration not stated) | 0.1 | 15% | 0.6% | -0.9% | -7 | -3 | -0.1
COc1ccc2c(c1OC)C(=O)N1c3cccc(Cl)c3C(=O)OC21 (configuration not stated) | 0.1 | 9% | 4.5% | 5.2%[38.3 µM] | 3 | 1 | -1.0
CCOC(=O)N1CCN(C(=O)c2ccc(CNS(=O)(=O)c3ccc(OC)cc3)cc2)CC1 | -0.2 | 17% | -2.0% | -1.3% | -11 | -9 | 0.3
O=C(CC1CCCCC1)NCCCN1CCOCC1 | 0.1 | -7% | 1.2% | 5.8%[38.3 µM] | 0 | 15 | 2.5
CCOc1ccccc1/C=N/NC(=O)c1cc(C(C)C)[nH]n1 | -0.1 | 5% | . | 1.7% | 11 | -5 | 12
Cc1ccc2c(c1)-c1c(cnc3cc(-c4ccc(Cl)cc4)nn13)CO2 | -0.4 | . | 18µM* | -0.6% | . | 4 | .
O=C(NCCc1ccccc1)C1CCCN(C(=O)Nc2ccc(F)cc2)C1 (configuration not stated) | 0.0 | 10% | . | -2.0% | -13 | -7 | -0.9
Cc1ccc(N2C(=O)CS(=O)(=O)C23C(=O)N(C)c2ccccc23)cc1F (configuration not stated) | 0.5 | . | 1.2% | -3.3% | . | 9 | .
CC1(C)CC(NC(=O)C(Cl)(Cl)Cl)CC(C)(C)N1 | -0.5 | 16% | 0.9% | -1.7% | -9 | -3 | 13
O=C(NCc1ccc(Cl)cc1)c1noc2c1CCCC2 | 1.3 | 10% | -1.2% | 4.0%[38.3 µM] | ? | 11 | 3.1
O=C(NCc1ccc(F)cc1F)[C@@H]1CCCN1C(=O)[C@@H]1CCCN1 | -0.5 | . | -4.4% | -0.9% | . | . | .
N/C(=N\O)c1ccccc1N1CCCCC1 | -0.2 | 17% | . | -1.6% | 8 | 1 | 6.1
CCOc1ccc(C(=O)NCC(=O)N2CCC3(CC2)NCCc2[nH]cnc23)cc1 | -0.6 | 8% | -0.3% | 0.0% | 7 | 3 | .
CCCCNS(=O)(=O)c1ccc2nc(-c3cccnc3)cc(C(=O)NCCCOC(C)C)c2c1 | -0.4 | . | -1.6% | 4.1% | . | -6 | .
N#Cc1nc(-c2cccc3ccccc23)oc1NCCN1CCOCC1 | 0.6 | -9% | 6.3µM* | ? | -5 | -16 | 7.1
CCN1CCN(c2cc(C)c3cc(NC(=S)N4CCCC4)ccc3n2)CC1 | 0.8 | 17% | . | 1.8% | 1 | -11 | 2.7
COc1ccc(N2CCN(CC(=O)Nc3ncc(C)s3)CC2)cc1 | 3.1 | -5% | -0.3% | 0.8% | -17 | 4 | -12
CC(C)Cc1cc(C(=O)N2CCCC(CO)(Cc3ccc(F)cc3)C2)no1 (configuration not stated) | 2.0 | 11% | -10% | 1.4% | -22 | 5 | .
O=C1CN(C(=O)N[C@@H](Cc2ccccc2)C(=O)N[C@@H](C(=O)O)c2ccccc2)c2ccccc2N1 | 0.7 | 24% | -1.6% | -1.1% | 8 | 11 | -3.5
O=C(NCc1ccc2c(c1)CCO2)Nc1ccccc1 | 0.7 | 1% | . | -1.2% | -7 | 1 | 5.0
CCOc1ncccc1C(=O)OCc1ccccc1 | -0.3 | -4% | . | 3.1% | 21 | 3 | 8.1
Cc1ccc(S(=O)(=O)N2CCN(c3nc(-c4cccs4)nc(C)c3C)CC2)cc1 | -0.4 | . | -3.5% | -0.1% | . | . | .
Cc1cc(C)c(C#N)c(SCC(=O)N(CCC#N)c2ccc3c(c2)OCCO3)n1 | -0.6 | . | 0.3% | 0.0% | -13 | -12 | .
CCc1ccc(C(=O)c2cn(CC(=O)Nc3cc(OC)cc(OC)c3)c3ccc(CC)cc3c2=O)cc1 | 0.3 | . | -0.5% | 1.5% | . | -1 | .

Further records.
Compound | TRPML1 ag | Sfp inh | ClpP mod | PINK1 expr mod | TRPV1 potentiator | TRPML1 blocker | Menin MLL FP FL
CN(CC(=O)NC1CC1)S(=O)(=O)c1ccc(Br)cc1 | 0.2 | -3% | -1.2% | 0.8% | 0 | -4 | -1.5
COc1ccc(C(=O)N2CCN(C(=O)COc3ccc(Br)cc3)CC2)cc1OC | -0.2 | . | -0.5% | 1.1% | . | 25 | .
Cn1c(=O)c(S(=O)(=O)C(C)(C)C)c(O)c2ccccc21 | 0.7 | -2% | -12% | -0.6% | 4 | -23 | 3.5
Cc1cccc(OC(=O)c2ccncc2)c1C | 2.3 | 8% | -0.4% | 0.0% | -3 | 10 | -2.7
COc1cc2nn(-c3ccccc3N)nc2cc1OC | 0.4 | . | 4.4% | 4.1% | . | 9 | .
CCOc1ccc(NC(=O)COc2nsnc2N2CCCCC2)cc1 | 1.0 | 6% | 3.2% | 28%[38.3 µM] | 7 | 11 | 4.6
NC(=S)NNC(=O)COc1ccccc1O | -0.4 | -16% | -0.2% | 0.2% | -14 | -11 | -0.9
CSC1=C(C#N)C(c2ccncc2)C(C(=O)Nc2ccccc2)=C(C)N1 (configuration not stated) | -0.5 | 15% | -1.6% | 0.5% | 7 | 9 | -1.1
CCOc1ccc(OCCCC(=O)Nc2cc(S(=O)(=O)N3CCOCC3)ccc2N2CCOCC2)cc1 | 0.4 | . | -4.9% | -0.4% | . | -4 | .
C=CCNC(=O)CC1C(=O)NCCN1Cc1c(F)cccc1Cl (configuration not stated) | 0.0 | 18% | -5.9% | -1.0% | -7 | 10 | -0.5
CCCCN(CC)Cc1ccc(CNC(=S)Nc2cccc(F)c2)o1 | 0.3 | -1% | . | -0.1% | -7 | 2 | 3.1
C=CC[C@@H](CC(=O)N(CCO)Cc1ccccc1)C(=O)N[C@@H](C)COC(=O)[C@@H](CC=C)Cc1ccc(F)cc1 | 0.3 | . | 0.1% | 0.8% | . | 8 | .
COCCNC(=O)[C@@]1(C)C=C[C@@H](Cc2ccccc2)N1C(=O)c1ccccc1 | -0.2 | 10%&43% | -2.3% | -0.5% | 0 | -6 | -6.5&3.2
CCC(=O)N1CCc2cc(Br)cc(S(=O)(=O)Nc3ccc(C)cc3C)c21 | 4.5 | . | 1.4% | -0.6% | . | 12 | .
COc1ccc(CCN2Cc3c(cccc3[N+](=O)[O-])C2=O)cc1OC | -0.2 | 3% | . | 2.7% | 8 | -4 | 2.8
O=C(OCc1nnc(-c2ccccc2)o1)c1ccc2ccccc2n1 | -0.9 | 3% | -11% | -1.0% | -15 | -6 | 2.3
CN1CCN(CC(=O)Nc2cc(N3CCOCC3)ccc2[N+](=O)[O-])CC1 | -0.5 | 2% | . | 0.2% | -8 | -5 | -0.8
Cc1ccc(S(=O)(=O)N2CCN(c3nc(-c4cccs4)nc4cccnc34)CC2)cc1 | -0.1 | . | ? | -0.7% | . | . | .
Cc1cccc(NC(=O)c2cc(NC(=O)C3CC=CCC3C(=O)O)ccc2N2CCOCC2)c1 (configuration not stated) | 0.3 | 14% | -1.8% | 13%[38.3 µM] | 2 | -8 | -1.7
Cc1ccc(CN2CCC(CNC(=O)Nc3ccc(C)c(C)c3)C2)cc1 (configuration not stated) | -0.9 | . | -1.8% | 0.0% | . | -12 | .
Cc1nc2ncnn2c(N2CCCC(C(=O)Nc3ccc4c(c3)CCC4)C2)c1C (configuration not stated) | 0.5 | 3% | -1.0% | 13%[38.3 µM] | -10 | 24 | 2.2
O=C(Cn1cnc2c(nnn2Cc2ccccc2F)c1=O)NCC1CCCO1 (configuration not stated) | -0.2 | 9% | -2.0% | -2.0% | 7 | 6 | 2.0
COc1ccc(CN(C)Cc2nc3cc(OC)c(OC)cc3c(=O)[nH]2)c(OC)c1 | -0.3 | -20% | . | -1.0% | -35 | 8 | 1.1
O=C(/C=C/c1ccccc1)Nc1ccc(C(=O)N2CCCCC2)cc1 | -1.1 | -13% | . | 1.5% | 1 | 11 | 2.2
O=C(CCC(=O)n1ncc2ccccc21)NCc1ccccc1Cl | -0.3 | -18% | -0.7% | -0.5% | -2 | -13 | -0.5

(continued)
Compound | TRPML1 ag | Sfp inh | ClpP mod | PINK1 expr mod | TRPV1 potentiator | TRPML1 blocker | Menin MLL FP FL
Cc1cc(NC(=S)NC(=O)C2CC2)ccc1Br | -0.6 | -10% | -1.0% | 0.9% | -17 | -8 | 5.5
Cc1ccc(CNC(=O)c2oc3c(c2C)-c2nn(Cc4ccc(Cl)cc4)cc2CC3)cc1 | 2.0 | . | -23% | 1.2% | . | 40 | .
CCC1=NN(C(=O)c2ccc([N+](=O)[O-])cc2)C(O)(c2ccccc2)C1 (configuration not stated) | -0.2 | 7% | . | 3.5% | -8 | 15 | 0.2
CCOc1ccc(NC(=O)c2oc3ccccc3c2NC(=O)c2cc(C)cc(C)c2)cc1 | -0.7 | . | 0.8% | 0.7% | . | 1 | .
COc1ccc(-c2nc(CN(C)C(C)c3ccon3)c(C)o2)c(C)c1C (configuration not stated) | 1.4 | 0% | . | 2.7% | 5 | -2 | 4.6
O[C@H]1C[C@H](c2ccc(Cl)cc2)N(Cc2cccs2)C[C@@H]1n1cc(-c2ccc(F)cc2)nn1 | -0.3 | . | -0.7% | -0.7% | . | -5 | .
Cc1ccc(CNC(=O)N2CCN(S(=O)(=O)c3ccccc3)CC2)cc1 | -1.4 | 9% | 1.3% | -1.7% | -14 | -4 | 0.6
